Bioassay records as filed in PubChem BioAssay.
HPGD block = inhibitors of human 15-hydroxyprostaglandin dehydrogenase (HPGD); P15428; purified HPGD, NADH fluorescence kinetic, PGE2 substrate; Potency, µM, without a hit: top-dose activity change, negative = inhibition, usual class: inhibitors; 150,000 tested, 4.3% active; AID 894; active = well fitted inhibition curve with a large enough effect (not every such curve was filed as active); inconclusive = small, poorly fitted or top-dose-only effect, or another doubt; inactive = no such curve, though single readings can be large or run the other way;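 note: top concentration of the series not given in the record; plate controls included wells without enzyme; inactives centre near -10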
Target sequence (P15428 whole entry, looked up): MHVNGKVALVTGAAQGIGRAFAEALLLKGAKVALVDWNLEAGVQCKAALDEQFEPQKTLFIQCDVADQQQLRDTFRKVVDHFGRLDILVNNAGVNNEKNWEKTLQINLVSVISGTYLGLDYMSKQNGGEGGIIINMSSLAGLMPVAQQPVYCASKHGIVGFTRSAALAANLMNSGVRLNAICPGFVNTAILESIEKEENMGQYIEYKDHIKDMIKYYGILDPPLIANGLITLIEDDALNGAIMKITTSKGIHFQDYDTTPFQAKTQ
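NADH formation kinetics: reaction with 30 uM PGE2 and 1 mM NAD+ (final), 20 nM enzyme, Tris-HCl pH 8 with Tween 20, after 15 min compound preincubation at room temperature. Fluorescence change, last versus first of five reads.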
Starred values were filed as active, the others as inactive; u = inconclusive; & = joins results of further samples. % is set by controls: 0 for no effect and ±100 for the full control effect; potency is the fitted concentration of half-maximal effect.

SMILES	HPGD block
Cc1ccc(S(=O)(=O)N/N=C\c2cccnc2)cc1	-15.0%
Cc1cc(-c2csc(N)n2)c(C)n1-c1ccccc1	-23.5%
Cc1onc(-c2ccccc2Cl)c1C(=O)Nc1nn[nH]n1	1.8%
COc1ccc(NC(=O)COc2ccc(C(=O)NC3CCCc4ccccc43)cc2OC)cc1 (configuration not stated)	-13.7%
O=C(Nc1nc2c(s1)COc1ccccc1-2)c1cccs1	-15.0%
COc1ccc(C(CCNCc2ccccc2)c2ccc(F)cc2)cc1 (configuration not stated)	-10.7%
CCOC(=O)C1=C(c2ccccc2)NC(=O)NC1c1ccc(N(C)C)cc1 (configuration not stated)	-8.4%
COCc1nc(-c2ccc(-c3ccc(C)cc3)nc2OC)no1	u
CCc1cc2c(C)cc(=O)oc2cc1OC(=O)C1CCCN1C(=O)OC(C)(C)C (configuration not stated)	u
CC(C)OC(=S)N/C(=N\S(=O)(=O)c1ccccc1)c1ccccc1	u
COc1cccc(C2c3c(oc4cc(C)c(C)cc4c3=O)C(=O)N2CCCN(C)C)c1 (configuration not stated)	-10.9%
COc1cccc(NC(=O)c2ccccc2-c2nc(-c3ccc(Cl)cc3)no2)c1	-17.4%
CCCc1cc2c(=O)c(-c3ccc4c(c3)OCCO4)coc2cc1OC(=O)c1ccco1	-17.4%
CCc1ccccc1NC(=O)CSc1nnc([C@@H](NC(=O)OC(C)(C)C)C(C)C)o1	-23.3%
C=C(C)Cn1c(SCC(=O)N/N=C/c2ccccc2)nc2ccccc2c1=O	-7.7%
O=C(OCn1nnc2ccccc2c1=O)c1cccnc1Cl	-19.8%
Cc1ccccc1N=C1c2cc([N+](=O)[O-])ccc2-c2ncccc21	-15.7%
Cc1ccc(CNC(=O)C2CC2c2ccccc2)cc1 (configuration not stated)	-0.8%
COc1cc(NC(=O)c2ccco2)c(OC)cc1NC(=O)CCC(=O)Nc1cc(C)cc(C)c1	u
COC(=O)c1ccc(OC(=O)c2nn(C)cc2Cl)c(OC)c1	-22.3%
CC(C)Oc1ccc(C2CCC(=O)NC2=O)cc1 (configuration not stated)	-10.5%
CC(C)NC(=O)CSc1ccccc1C(=O)NCc1ccc2c(c1)OCO2	-1.4%
Cn1c(SCc2cnc(-c3ccccc3)s2)nnc1C1COc2ccccc2O1 (configuration not stated)	25.1µM*
CC(C)CC(C(=O)OCC(=O)Nc1ncc(Cl)cc1Cl)N1C(=O)c2ccccc2C1=O (configuration not stated)	-27.8%
N#CCCn1nc(-c2ccc([N+](=O)[O-])cc2)cc1Nc1ccccc1NC(=O)C(F)(F)F	-18.9%
C/C(N)=C(/C#N)C(=O)CSc1nc2ccc(C)cc2[nH]1	-12.0%
COC(=O)N/N=C/c1ccc(-c2cc(Cl)ccc2Cl)o1	-12.6%
CC(C)(C)NC(=O)C(c1ccccc1)N(C(=O)c1ccco1)C1CC1 (configuration not stated)	0.7%
CC(=O)N[C@H](Cc1ccc(O)cc1)C(=O)O	-5.1%
CC(C)C(C)NC(=O)CSc1nc2scc(-c3ccco3)c2c(=O)n1-c1ccccc1 (configuration not stated)	u
CCOC(=O)c1c(NC(=O)C2C3C=CC(C3)C2C(=O)O)sc2c1CCC(C)C2 (configuration not stated)	-13.4%
CCOC(=O)c1nc(Nc2ccc(C(=O)OC)cc2)c2ccccc2n1	u
CCCCC1CCC(C(=O)N2CCOCC2)CC1 (configuration not stated)	15.8µM*
CSc1ccc2c(c1)N(CCC1CCCCN1C)c1ccccc1S2 (configuration not stated)	-3.2%&-5.8%&-7.6%
O=C(c1ccc2c(c1)C(=O)N(Cc1ccco1)C2=O)N1CCOCC1	-6.3%
CCCCCCN(C(=O)CCCCCN1C(=O)NC(c2ccc(-c3ccccc3)cc2)C(C(=O)OCc2ccccc2)=C1C)C(C(=O)NCCCC)c1cccc(C(=O)OC)c1 (configuration not stated)	-11.7%
COc1ccc(CSc2n[nH]c(C)n2)cc1[N+](=O)[O-]	-27.3%
c1ccc(OCCCc2nc(-c3cccnc3)no2)cc1	6.6%
CN(C)CCn1c(NC(=O)c2ccc(Cl)cc2)nc2ccccc21	u
Cc1ccccc1Nc1nc(-c2sc(NC(=O)c3cccc(Cl)c3)nc2C)cs1	-14.2%
CCC(C)c1ccc(NC(=O)C2CCCN(c3ncccn3)C2)cc1 (configuration not stated)	u
CCn1c2ccccc2c2cc(NC(=O)CSc3nnc(-c4cccc(Cl)c4)o3)ccc21	-23.9%
CCC(=O)Nc1nnc(SCc2ccc(F)cc2)s1	1.0%
O=C(NCc1ccco1)c1nc2c(nnn2Cc2cccc(Cl)c2)c(=O)[nH]1	0.355µM*
O=C1CC(c2ccc3c(c2)OCO3)C2=C(CCCC2=O)N1 (configuration not stated)	-11.3%
CCOC(=O)c1c(C)[nH]c(C)c1C(=O)CSc1nnc(-c2ccc(OC(F)F)cc2)o1	-8.8%
CCCOC(=O)c1c(NC(=O)/C=C/c2cnn(C)c2C)sc(C(=O)OCC)c1C	u
C/C(=N\NC(=O)C1(C)CC1(Br)Br)c1cccc(NC(=O)C(C)(C)C)c1 (configuration not stated)	-10.7%
COC(=O)C1=C(C(=O)OC)[C@@H]2N(C)c3ccccc3[C@@]23C[C@@H](C(=O)OC)N(C(=O)COCc2ccccc2)C3=N1	0.6%
Cc1cc(NC(=O)c2cccc(F)c2)ncc1NC(=O)c1ccco1	-3.7%
NCCC[C@@H](CC(=O)N[C@@H]1CCCC[C@H]1C(=O)N[C@H](CC(=O)N[C@@H](CCC(=O)O)CC(=O)O)Cc1ccccc1)NC(=O)C[C@H](CO)NC(=O)[C@@H]1CNCC[C@H]1N	-5.8%
O=C(CNCc1ccc(Cl)cc1)NCc1ccco1	-1.8%
COc1ccccc1NC(=O)C(=O)Nc1ccccn1	-6.6%
CCn1c(SCC(=O)Nc2ccc(NC(C)=O)cc2)nnc1C1CC1	-5.4%
CN(C)CCNc1ncnc2c1cnn2-c1ccc(Cl)cc1	-29.7%
Nn1c(Cc2cccc3ccccc23)nnc1SCC(=O)N1CC(=O)Nc2ccccc21	-24.7%
O=C(Nc1ccccc1O)c1ccccc1O	-29.5%
COc1cc(C(=O)Nc2cccc3ncccc23)cc(OC)c1OC	-14.5%
Cc1ccc(NCc2nnc(SCC(=O)Nc3ccccc3)n2CC2CCCO2)c(C)c1 (configuration not stated)	-8.3%
O=S(=O)(c1ccc(NC(=S)NCCc2ccccc2)cc1)N1CCOCC1	-5.4%
Next structures.
SMILES	HPGD block
CCCS(=O)(=O)N1CCC(C(=O)NCCc2ccc(C)cc2)CC1	-1.7%
Nc1nc(-c2cccnc2)nc(N2CCCCC2)n1	0.0%
COc1cc2c(cc1OC)CN(C(=O)CCCOc1ccc(Cl)cc1Cl)CC2	35.5µM*
O=C(CNc1cccc(Cl)c1)c1ccc(Cl)cc1	-24.3%
O=C1c2cccc3cccc(c23)C(=O)N1CCN1CCN(CC(O)COCc2ccc(Cl)cc2)CC1 (configuration not stated)	-12.8%
[N-]=[N+]=CC(=O)c1ccnc(C(=O)C=[N+]=[N-])c1	-4.0%
CCOC(=O)c1c(NC(=O)Cn2nnc(-c3ccc(Cl)cc3)n2)sc(CC)c1C	-22.4%
N/C(=N\OC(=O)COc1ccccc1)c1ccc(Cl)cc1	-14.5%
CCOC(=O)CSc1nnc2cc(C)c3ccccc3n12	-6.7%
CCn1cc(C(=O)NCCCN2CCC(C)CC2)c2cc(OC)c(OC)cc2c1=O	-10.4%
Cc1ccc(C(=O)N(CC(=O)Nc2ccc(Cl)c(Cl)c2)Cc2ccco2)cc1	-10.7%
O=C(CN(CC1CCCO1)C(=O)Cn1nnc(-c2ccc(F)cc2)n1)NC1CCCCC1 (configuration not stated)	-5.1%
CS(=O)(=O)N(CC(=O)N/N=C/c1cccc2c1OCCO2)c1ccccc1Br	u
COc1ccc(Br)cc1S(=O)(=O)N1CCN=C1C	-3.1%
O=C(Cn1cc2c(n1)CCCC2)NC1CCN(Cc2ccccc2)CC1	-6.1%
C=C1C2CC[C@@]3(C)C(c4ccoc4)OC(=O)C[C@@]13OC1CC(O)C(C)(C)C(CC(=O)OC)[C@@]12C (some centres not stated)	-1.2%&0.9%
CCn1c(=O)c2cc(S(=O)(=O)NC3CCCCC3)ccc2n(CC)c1=O	-8.8%
Cn1c(CC(=O)Nc2ccccc2C(F)(F)F)c(Sc2ccccc2)c2ccccc21	-0.2%
Cc1sc2nc(-c3cccs3)nc(N3CCCN(C)CC3)c2c1C	u
CCOC(=O)c1cc2oc(C(c3nnnn3C3CCCCC3)N3CCOCC3)cc2[nH]1 (configuration not stated)	-21.9%
COc1ccccc1-n1cnnc1SCC(=O)c1c[nH]c2ccccc12	-14.2%
Cc1cccc(CSc2nnnn2-c2ccccc2)c1	-18.0%
O=C(NCc1ccco1)C1(S(=O)(=O)c2ccc(Cl)cc2)CC1	-13.5%
COc1cc(NS(=O)(=O)c2ccc(NC(=S)NC(=O)c3sc4ccccc4c3Cl)cc2)ncn1	-15.6%
Cc1ccc(S(=O)(=O)n2nc(OC(=O)C(C)(C)C)cc2N)cc1	-26.9%
COc1cc(C(=O)Nc2oc(-c3ccccc3)c(-c3ccccc3)c2C#N)cc(OC)c1OC	u
CCOCCCNC(=O)C(NC(=O)c1ccc(NC(C)=O)cc1)c1ccc(OC)cc1 (configuration not stated)	-0.5%
Cc1c[nH]c2cccc(OCC(O)CNC(C)(C)C)c12 (configuration not stated)	-16.1%
CCOC(=O)CCSc1nc(C)c2ccccc2n1	-18.5%
CCC(C)(C)n1nnnc1C(c1cc2ccc(OC)cc2[nH]c1=O)N1CCc2ccccc2C1 (configuration not stated)	-14.7%
O=[N+]([O-])c1ccc2c(c1)oc1ccccc12	0.2%
CC(C)C1=CC2=CC[C@@H]3[C@@](C)(C(=O)O)CCC[C@]3(C)C2CC1 (some centres not stated)	-10.0%
O=S(=O)(c1ccc2c(c1)nc1n2CCC1)N1CCOCC1	-3.1%
Cc1ccc(NC(=O)c2ccccc2NC(=O)CCC(=O)O)cc1	-13.0%
CCn1c(=N)n(CC(=O)OC)c2ccccc21	-7.3%
Cc1ccccc1NC(=S)N1CCC(C(=O)c2ccc(F)cc2)CC1	-17.3%
COc1ccc(N(CC(=O)NC2CCCCC2)C(=O)CCCC(=O)Nc2ccccn2)c(OC)c1	-7.6%
Cc1cc(=O)oc2cc(OCC(=O)N3CC(C)OC(C)C3)ccc12 (configuration not stated)	u
CCCCC(=O)NC(=S)NNC(=O)CC#N	-21.4%
c1ccc(COc2cccc(CNn3cnnc3)c2)cc1	-16.9%
CN1c2ccccc2-c2nc3ccccc3n2C1c1ccco1 (configuration not stated)	u
O=C(/C=C/c1cccc(Cl)c1)NCc1cccs1	31.6µM*
Cc1ccc(-c2[nH]c(-c3ccccc3)nc2SCC(=O)NCC2CCCO2)cc1 (configuration not stated)	u
Cc1ccc(Nc2cc(-n3nc(C)cc3C)ncn2)cc1	-2.7%
CCc1nnc(NC(=O)C2CC(=O)N(CCc3ccccc3)C2)s1 (configuration not stated)	-8.5%

Ordered by the number under HPGD block (high to low): some entries from above.
Structure	HPGD block
COc1cc2c(cc1OC)CN(C(=O)CCCOc1ccc(Cl)cc1Cl)CC2	35.5µM*
O=C(/C=C/c1cccc(Cl)c1)NCc1cccs1	31.6µM*
Cn1c(SCc2cnc(-c3ccccc3)s2)nnc1C1COc2ccccc2O1 (configuration not stated)	25.1µM*
CCCCC1CCC(C(=O)N2CCOCC2)CC1 (configuration not stated)	15.8µM*
O=C(NCc1ccco1)c1nc2c(nnn2Cc2cccc(Cl)c2)c(=O)[nH]1	0.355µM*

Going on with the list.
SMILES	HPGD block
C(=N\C(/N=C/c1ccco1)c1ccco1)/c1ccco1	u
CC1CCN(S(=O)(=O)c2ccc(S(=O)(=O)NCC(=O)C(C)(C)C)cc2)CC1	-2.4%
O=c1[nH]c2cc3c(cc2cc1CN(CCO)S(=O)(=O)c1ccccc1Cl)OCCO3	u
O=C(O)c1cccnc1C(=O)O	-9.3%&-4.6%&-11.4%
Cc1cc(NC(=O)CN2C(=O)CC(c3ccco3)Sc3ccccc32)no1 (configuration not stated)	-5.0%
CCC(CC)=C(C#N)C(=O)NC1CCCCC1	-17.4%
COc1cc(C=C(c2nc3ccccc3s2)c2nc3ccccc3s2)cc(OC)c1O	-14.6%
CCc1ccc(N2C(=O)c3sc4nnc(-c5ccccc5)c(=O)n4c3C2=O)cc1	-16.1%
Cc1nc2c3ccccc3n(Cc3ccccc3F)c2s1	-10.2%
CCCCC1CCC(C(=O)Nc2ccccc2)CC1 (configuration not stated)	-12.5%
C=CCn1c(-c2ccc(OC)cc2)nc2ccccc21	u
CN(C(=O)CSc1nnc2ccccn12)C1CCS(=O)(=O)C1 (configuration not stated)	-16.1%
CC(=O)Oc1oc(-c2ccccc2)nc1C=Nc1ccccc1	15.8µM*
CNS(=O)(=O)c1ccc(NC(=O)C2c3ccccc3Oc3ccccc32)cc1	-9.3%
Cc1ccc2onc(CC(=O)O)c2c1	-5.8%
CNC(=O)[C@H]1O[C@H](n2cnc3c(NCc4cccc(I)c4)nc(Cl)nc32)[C@@H](O)[C@@H]1O	-20.2%
CCOc1ccc(S(=O)(=O)Nc2cccc(C(=O)N3CCN(c4ccc(OC)cc4)CC3)c2)cc1	-14.4%

No new results follow: six of the compounds above.
SMILES	HPGD block
CCc1ccc(N2C(=O)c3sc4nnc(-c5ccccc5)c(=O)n4c3C2=O)cc1	-16.1%
Cc1nc2c3ccccc3n(Cc3ccccc3F)c2s1	-10.2%
CCCCC1CCC(C(=O)Nc2ccccc2)CC1 (configuration not stated)	-12.5%
C=CCn1c(-c2ccc(OC)cc2)nc2ccccc21	u
CN(C(=O)CSc1nnc2ccccn12)C1CCS(=O)(=O)C1 (configuration not stated)	-16.1%
CC(=O)Oc1oc(-c2ccccc2)nc1C=Nc1ccccc1	15.8µM*

An excerpt, so the mix of outcomes need not match the whole.
